Assay outcomes (PubChem BioAssay)
TRPV1 potentiator: potentiators of human vanilloid receptor 1 (TRPV1); potentiation, % at 8.33 µM; TRPV1-expressing cells, Fluo-8 calcium influx, capsaicin EC20 potentiation; host cell line not named in the record; control for the full effect not named in the record; hit rate 0.02% among 320,000; active means potentiation above 80%; inconclusive means 30% to 80%; inactive means below 30%; also: 0% is about no effect
Target sequence (Q8NER1 whole entry, looked up): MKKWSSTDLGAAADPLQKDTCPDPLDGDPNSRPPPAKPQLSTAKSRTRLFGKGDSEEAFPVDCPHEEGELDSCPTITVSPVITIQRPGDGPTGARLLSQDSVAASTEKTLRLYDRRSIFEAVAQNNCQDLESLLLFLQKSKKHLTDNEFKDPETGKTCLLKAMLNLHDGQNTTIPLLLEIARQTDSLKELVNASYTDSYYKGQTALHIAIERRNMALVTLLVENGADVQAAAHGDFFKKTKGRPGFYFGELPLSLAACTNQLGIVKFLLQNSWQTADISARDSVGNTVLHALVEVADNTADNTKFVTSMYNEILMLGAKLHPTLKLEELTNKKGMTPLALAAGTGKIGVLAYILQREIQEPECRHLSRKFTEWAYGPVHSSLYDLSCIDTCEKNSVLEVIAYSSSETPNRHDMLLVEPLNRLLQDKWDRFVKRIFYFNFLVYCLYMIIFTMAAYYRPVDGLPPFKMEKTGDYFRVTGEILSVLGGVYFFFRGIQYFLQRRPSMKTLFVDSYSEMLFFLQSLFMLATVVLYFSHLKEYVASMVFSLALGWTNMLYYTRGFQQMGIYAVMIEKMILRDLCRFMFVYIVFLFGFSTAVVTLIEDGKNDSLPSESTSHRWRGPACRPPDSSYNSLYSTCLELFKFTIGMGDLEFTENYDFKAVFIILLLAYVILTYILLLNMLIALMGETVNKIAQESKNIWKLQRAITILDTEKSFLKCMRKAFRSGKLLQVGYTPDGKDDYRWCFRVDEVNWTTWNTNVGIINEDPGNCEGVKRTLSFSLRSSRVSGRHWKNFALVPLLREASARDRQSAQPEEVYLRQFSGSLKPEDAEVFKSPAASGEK
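Fluo-8 calcium influx in TRPV1-expressing cells, kinetic read (ex 480/em 520 nm). Compound added and read 3 min for agonist activity, followed by capsaicin at EC20 final and 2 min further read for enhancement.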
D2 PAM: potentiates the human D2 dopamine receptor allosterically | P14416 | DiscoveRx D2 beta-arrestin cells, luminescence, 90 min; 100% = 57 uM dopamine signal | potentiation, % (test concentration not listed) | hit rate 0.23% among 360,000 | AID 624464; active = potentiation of 50% or more; inconclusive = 30% to 50%; inactive = 30% or less;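 also: compound concentration not given in the record; tested on top of an EC20 dose of dopamine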
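PathHunter D2 cells, attached overnight at 37 deg C, received compound in DMSO plus dopamine at EC20 (50 nM final) for 90 min at 37 deg C. Beta-arrestin recruitment was read as luminescence after 1 h with detection reagent at ambient temperature.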
Menin-MLL FL inh: menin-MLL binding inhibition, fluorescein peptide; Fluorescence polarization, fluorescein-MLL peptide displacement from menin; FP activity change, % at 61.4 µM; 290,000 tested, under 10 active; AID 1766; inconclusive = falling polarisation curve, or a change in total fluorescence; inactive = total fluorescence flat and polarisation flat or rising; no compound was filed as active; the % refers to the polarisation; negative = inhibition;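 also: % of control where 0% means no effect; inhibitors lower the polarisation; unlabelled MLL peptide was the positive control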
gsp antag: antagonizes gsp, the McCune-Albright syndrome mutation; gsp-mutant cells, cAMP HTRF, 30 min; control for the full effect not named in the record; Potency, µM (highest dose often 76.9 µM), for inactives: at the highest dose activity change, negative = inhibition, usual class: inhibitors; hit rate 0.4% among 340,000; active = falling curve of any shape with a large fitted effect; inconclusive = falling curve, mostly with a smaller effect; inactive = flat or rising curve; cell line not stated here;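 also: intracellular cAMP measured with PDE inhibitor Ro 20-1724 present during compound exposure; potency is read from the fitted curve at half-maximal effect; % is scaled to controls: 0 for no effect and ±100 for the full control effect; nearly all actives have a fitted effect of over 65% in size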
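Cells in G418 medium, seeded 16-24 h, 37C; buffer exchange to DPBS + 1 mM CaCl2, 0.5 mM MgCl2, 0.05% BSA; cpds in DMSO + […] (300 uM stock), 30 min 37C; HTRF cAMP detection.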
Sfp inh: Sfp phosphopantetheinyl transferase inhibition; Q9F4F7; Biochemical Sfp PPTase activity, qHTS; Potency, µM, for the others: max response, negative = inhibition, hits mostly inhibitors; hit rate 3.5% among 310,000; active = well fitted inhibition curve with a large enough effect; inconclusive = small, poorly fitted or top-dose-only effect, or another doubt; inactive = no such curve, though single readings can be large or run the other way;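 also: the enzyme is Sfp with the accession as filed and its product quenches rhodamine fluorescence; potency is read from the fitted curve at half-maximal effect; 0% = enzyme reaction without inhibitor and -100% = no enzyme wells; top concentration of the series not given in the record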
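With Hepes-Na pH 7.6 buffer containing 10 mM MgCl2, Sfp (15 nM) modified BHQ-2-YbbR (12.5 uM) using rhodamine-CoA (5 uM). Two reads 30 minutes apart at 525/598 nm yielded each well's rate.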
gsp ag: gsp mutant agonism. gsp mutant cells, cAMP HTRF, 30 min; control for the full effect not named in the record. Potency, µM (top dose mostly 76.9 µM), for the others: at the top dose activation (cAMP increase), usual class: activators. hit rate 0.13% among 340,000; active = well fitted activation curve with a large enough effect; inconclusive = small, poorly fitted or top-dose-only effect, or another doubt; inactive = no such curve, though single readings can be large or run the other way; cell line not stated here;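 also: phosphodiesterase inhibitor Ro 20-1724 added with compounds to block cAMP breakdown; potency is read from the fitted curve at half-maximal effect; nearly all actives have a fitted effect of over 60% in size; about a fifth of the inactives were tested at one dose only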
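Cells stably selected in G418 were plated at 2000/well, grown 16-24 hr, then given compounds in DMSO with the PDE inhibitor […] (300 uM solution added) for 30 min at 37C; cAMP was read by HTRF.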
ClpP mod: qHTS Assay for Activators of ClpP; ATP-dependent Clp protease proteolytic subunit (Bacillus subtilis (strain 168)), P80244; hit rate 1.9% among 340,000; Potency, µM (titrated, usually from 57.5 µM), for the others: at the top dose activity change, negative = active; purified B. subtilis ClpP, FRET peptide cleavage, 20 min; AID 651965, 2013; active = well fitted falling curve with a large enough effect; inconclusive = small, poorly fitted or top-dose-only effect; inactive = no such curve, though single readings can be large or run the other way; also: potency is read from the fitted curve at half-maximal effect; the source files actives as falling curves though it sought activators and does not explain the sign; nearly all actives have a fitted effect of over 65% in size; many hits overshoot -100%
Target sequence (P80244 whole entry, looked up): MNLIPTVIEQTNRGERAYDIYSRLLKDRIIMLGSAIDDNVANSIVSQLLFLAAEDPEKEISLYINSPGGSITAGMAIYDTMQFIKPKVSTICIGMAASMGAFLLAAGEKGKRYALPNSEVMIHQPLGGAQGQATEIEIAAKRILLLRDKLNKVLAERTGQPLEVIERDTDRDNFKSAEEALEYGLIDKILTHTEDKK
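FRET quenching reversal measured ClpP activation: 10 microg/mL B. subtilis ClpP at pH 8 with the FRET-FV decapeptide, read at 430 nm after 320 nm excitation. The 20-min minus 0-min signal was scaled between DMSO/no-enzyme wells and ADEP (5.8 microM final).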
Numbers without * were called inactive; u = inconclusive; x = not tested or not shown; [ ] = dose if it differs, or a comment.

Assay codes: A = TRPV1 potentiator; B = D2 PAM; C = Menin-MLL FL inh; D = gsp antag; E = Sfp inh; F = gsp ag; G = ClpP mod
Cc1ccc(S(=O)(=O)NCCCCCC(=O)NC(C)(C)CO)cc1
  A: 1 | B: 6 | C: -2.7 | D: -1% | E: 13% | F: -4% | G: 0.6%

CC(C)(C)NS(=O)(=O)c1ccc(CCC(=O)N2CCCC2)cc1
  A: 5 | B: 0 | C: -1.6 | D: 11% | E: 6% | F: -19% | G: x

CCN1CCN(c2oc(-c3ccccc3C)nc2S(=O)(=O)c2ccccc2)CC1
  A: 10 | B: -41 | C: x | D: -11% | E: x | F: 18% | G: -3.9%

Cc1ccc(C(=O)O)cc1Nc1ncnc2sc3c(c12)CCC3
  A: -8 | B: -4 | C: 2.2 | D: -22% | E: 14% | F: u | G: -3.8%

O=C(N[C@@H](Cc1ccccc1)C(=O)NC1CCCCC1)c1ccco1
  A: -14 | B: -19 | C: -1.4 | D: 3% | E: 7% | F: 14% | G: -16%

CCOc1ccc(S(=O)(=O)Nc2cccc(C(=O)NCC(c3ccco3)N3CCCC3)c2)cc1 (stereo not given)
  A: 19 | B: -5 | C: x | D: -4% | E: x | F: -8% | G: 0.1%

Cc1ccc(C(=O)N2c3ccccc3N(Cc3ccccc3)C(=O)C2(C)C)cc1
  A: -13 | B: -2 | C: 5.3 | D: -26% | E: -1% | F: 29% | G: -2.0%

CCOC(=O)c1sc(Nc2nc3c(OC)cccc3s2)nc1C
  A: 5 | B: x | C: 1.9 | D: x | E: 4% | F: x | G: x

N=c1sccn1CC(=O)Nc1cccc(S(N)(=O)=O)c1
  A: 4 | B: -17 | C: 2.5 | D: 8% | E: -15% | F: 7% | G: -4.7%

Cc1nn(-c2ccc(F)cc2)c2sc(C(=O)N3CCCCCC3)cc12
  A: -2 | B: -24 | C: 3.4 | D: -3% | E: 18% | F: 22% | G: -1.5%

CCCSC1=C(C#N)C2(CCCCC2)C(C#N)=C(N)N1
  A: 11 | B: -13 | C: 5.7 | D: -19% | E: -7% | F: 2%[15.4 µM] | G: x

O=c1c2sc(-c3ccccc3)cc2nc2n1CCC2
  A: 0 | B: -5 | C: 3.2 | D: -7% | E: -8% | F: 26%[15.4 µM] | G: 22µM*

O=C(Cc1cccs1)N1CCN=C1SCc1ccccc1F
  A: 12 | B: -16 | C: -1.1 | D: 1% | E: 11% | F: 15%[15.4 µM] | G: 1.7%

COc1ccc(CN2CCNC(=O)C2CC(=O)NC2CCCCCC2)cc1C (stereo not given)
  A: 0 | B: -14 | C: x | D: 7% | E: -7% | F: 29% | G: -6.7%

Cc1ccccc1NC(=O)NC1CCCc2ccccc21 (stereo not given)
  A: -8 | B: 4 | C: -1.3 | D: 0% | E: 18% | F: u | G: -1.8%

Following part:
Assay codes: A = TRPV1 potentiator; B = D2 PAM; C = Menin-MLL FL inh; D = gsp antag; E = Sfp inh; F = gsp ag; G = ClpP mod
CCCn1c(SCC(=O)Nc2nc3c(s2)CCCC3)nc2c1c(=O)n(C)c(=O)n2C
  A: 8 | B: -7 | C: -1.6 | D: 0% | E: -12% | F: -10% | G: -0.5%

Clc1ccccc1CONc1ncnc2nonc12
  A: 12 | B: -8 | C: -1.7 | D: -24% | E: -3% | F: -6% | G: -2.0%

C#CCOC(=O)C[N+](C)(C)CC=C
  A: 3 | B: -2 | C: 5.8 | D: 3% | E: 11% | F: 0%[15.4 µM] | G: x

CCOC(=O)c1ccccc1Nc1cc(C)nc2nc(C)nn12
  A: 9 | B: -3 | C: 7.4 | D: -2% | E: -1% | F: 6% | G: 0.1%

CC(=O)c1ccc(OCCCC(=O)NC2=NCCS2)cc1
  A: 5 | B: -1 | C: 3.9 | D: 3% | E: 6% | F: -29% | G: -1.7%

COc1ccc(C(=O)OCC(=O)NCC2CCCCC2)cc1F
  A: -11 | B: -4 | C: x | D: 12% | E: x | F: -4% | G: -3.2%

CN1C(=O)c2ccccc2CC12c1ccccc1C(=O)N2C (stereo not given)
  A: x | B: 0 | C: x | D: x | E: x | F: -5% | G: 0.0%

Fc1ccc(-c2csc3ncnc(N4CCN(c5ccccc5)CC4)c23)cc1
  A: 6 | B: -7 | C: 6.8 | D: -14% | E: -3% | F: 6% | G: x

COc1ccc(S(=O)(=O)N2CCC(C(=O)Nc3nnc(C)s3)CC2)cc1OC
  A: -12 | B: 14 | C: x | D: -1% | E: x | F: -23% | G: -0.5%

O=C(c1cc2c(s1)CCCC2)N1CCN(S(=O)(=O)c2ccccc2C(F)(F)F)CC1
  A: -3 | B: -18 | C: 1.7 | D: -9% | E: 0% | F: -15% | G: 1.0%

Cc1cc(NC(=O)CSc2nnc(-c3ccc(Br)o3)n2Cc2ccccc2)no1
  A: 13 | B: 1 | C: 3.6 | D: 2% | E: -7% | F: 0% | G: -1.0%

Cc1ccnc(NC(=O)CCC(=O)N(CC(=O)NCc2ccccc2)Cc2ccc(F)cc2)c1
  A: -5 | B: -3 | C: x | D: -12% | E: 7% | F: 24% | G: x

c1ccc2c(C[C@@H]3CNCCN3CC3CCCCC3)cccc2c1
  A: 24 | B: -54 | C: x | D: 9% | E: x | F: x | G: 1.6%

O=C(NCCc1ccccc1)C1CCCN(c2cnccn2)C1 (stereo not given)
  A: 9 | B: -7 | C: x | D: -12% | E: 7% | F: 10% | G: -11%

COc1ccccc1CNC(=O)[C@H](C)NC(=O)[C@@H]1Cc2ccccc2CN1
  A: -10 | B: -13 | C: 0.3 | D: 15% | E: 11% | F: 18% | G: 1.3%

Some of the entries above in a different format.
Structure	TRPV1 potentiator	D2 PAM	Menin-MLL FL inh	gsp antag	Sfp inh	gsp ag	ClpP mod
Fc1ccc(-c2csc3ncnc(N4CCN(c5ccccc5)CC4)c23)cc1	6	-7	6.8	-14%	-3%	6%	x
COc1ccc(S(=O)(=O)N2CCC(C(=O)Nc3nnc(C)s3)CC2)cc1OC	-12	14	x	-1%	x	-23%	-0.5%
O=C(c1cc2c(s1)CCCC2)N1CCN(S(=O)(=O)c2ccccc2C(F)(F)F)CC1	-3	-18	1.7	-9%	0%	-15%	1.0%
Cc1cc(NC(=O)CSc2nnc(-c3ccc(Br)o3)n2Cc2ccccc2)no1	13	1	3.6	2%	-7%	0%	-1.0%

(cont.)
Assay codes: A = TRPV1 potentiator; B = D2 PAM; C = Menin-MLL FL inh; D = gsp antag; E = Sfp inh; F = gsp ag; G = ClpP mod
Clc1cccc(-c2ccc(/C=N/n3cnnc3)o2)c1Cl
  A: 1 | B: 1 | C: 2.9 | D: -2% | E: 9% | F: -48%[inhibitor] | G: -4.3%

COc1cccc(NC(=O)CN(C)C(=O)C(C)Sc2ccccc2)c1 (stereo not given)
  A: -13 | B: 17 | C: x | D: 3% | E: x | F: -19% | G: -1.8%

O=C(CC12CC3CC(CC(C3)C1)C2)NCC(=O)N1CCc2ccccc2C1
  A: 2 | B: -2 | C: 1.8 | D: 9% | E: 0% | F: -58%[inhibitor] | G: -0.3%

C=CCNc1scc(-c2ccccc2)[n+]1CC=C
  A: 0 | B: -2 | C: 2.2 | D: 5% | E: 5% | F: -19% | G: x

C#CCOCCOCCOCCNc1nc(N2CCN(C(=O)[C@H]([C@@H](C)CC)n3cc([C@@H](N)CC(C)C)nn3)CC2)nc(N2CCN(C(=O)[C@H](Cc3ccc(O)cc3)n3cc([C@@H](N)C(C)CC)nn3)CC2)n1 (stereo not given in full)
  A: 7 | B: -16 | C: 4.6 | D: -1% | E: 3% | F: u | G: 1.4%

C/C(=N/N1CCN(c2ccccn2)CC1)c1ccc([N+](=O)[O-])cc1
  A: 11 | B: 2 | C: 2.6 | D: 8% | E: -11% | F: -1% | G: -1.2%

CCOc1ccccc1CNS(=O)(=O)c1cc(-c2cc(C)no2)ccc1OC
  A: -3 | B: -9 | C: 4.0 | D: -26% | E: 11% | F: -16% | G: -10.0%

c1ccc(-c2ncc3c(ccc4ccccc43)n2)cc1
  A: 18 | B: -5 | C: 0.5 | D: -5% | E: 6% | F: 5%[15.4 µM] | G: -8.9%

COc1ccc(CCNC(=O)CCCn2c(SCC#N)nc3ccccc3c2=O)cc1OC
  A: -6 | B: -2 | C: 0.0 | D: -7% | E: 12% | F: 17% | G: 1.5%

Cc1cccc(C(CC(=O)N2CCCCC2)c2ccccc2)c1O (stereo not given)
  A: 1 | B: -7 | C: -0.3 | D: -22% | E: -3% | F: -29% | G: x

CCCCNC(=O)CSc1nc2ccccc2c(=O)n1CCNC(C)=O
  A: 4 | B: -8 | C: 1.1 | D: 2% | E: 8% | F: u | G: 0.0%

CCN(CC)c1nc(-c2ccccc2)ncc1S(=O)(=O)c1ccc(C)cc1
  A: 2 | B: -13 | C: 0.1 | D: -10% | E: -4% | F: -4% | G: -13%

O=C(Nc1ccc(F)cc1F)c1cccnc1
  A: 24 | B: -6 | C: -1.0 | D: 2% | E: 2% | F: -9% | G: -0.2%

COc1ccc(C(=O)N2CCC(n3c(C)nc4cc(F)ccc43)CC2)cc1OC
  A: 21 | B: -6 | C: -1.5 | D: 11% | E: 15% | F: -21% | G: 0.8%

COc1ccc(Br)cc1C=NNS(=O)(=O)c1ccc(C)cc1
  A: x | B: -39 | C: x | D: x | E: x | F: -53% | G: -0.7%

Carrying on:
Assay codes: A = TRPV1 potentiator; B = D2 PAM; C = Menin-MLL FL inh; D = gsp antag; E = Sfp inh; F = gsp ag; G = ClpP mod
CCOc1ccc(N(CC(=O)N2CCN(C(=O)CN(c3ccc(OCC)cc3)S(C)(=O)=O)CC2)S(C)(=O)=O)cc1
  A: -2 | B: -1 | C: 2.2 | D: 6% | E: 5% | F: 18% | G: 0.5%

CCN(CC(=O)Nc1c(F)cccc1F)C(=O)c1ccc(=O)[nH]c1
  A: 13 | B: 6 | C: x | D: -4% | E: -26% | F: -3% | G: -4.8%

C1CCCC(N2CCNCC2)CC1
  A: -2 | B: 1 | C: 4.8 | D: 1% | E: 11% | F: -53%[inhibitor] | G: 0.6%

O=C(CSc1ccc(-c2ccco2)nn1)NC1CCCCC1
  A: u | B: u | C: 0.4 | D: 0% | E: 25µM* | F: 19%[15.4 µM] | G: x

CCOc1ccc(OCC)c(-c2c(=O)n(OCc3ccccc3C(=O)OC)c3ccccc3[n+]2[O-])c1
  A: 3 | B: -8 | C: 0.6 | D: -9% | E: -4% | F: 8% | G: -0.3%
